HPGD block – qHTS Assay for Inhibitors of HPGD (15-Hydroxyprostaglandin Dehydrogenase); Potency, µM, for the others: at the highest dose activity change, negative = inhibition, usual class: inhibitors; 150,000 tested, 4.3% active; AID 894, 2007; purified HPGD, NADH fluorescence kinetic, PGE2 substrate; 15-hydroxyprostaglandin dehydrogenase [NAD(+)] (Homo sapiens), P15428; active = well fitted inhibition curve with a large enough effect (not every such curve was filed as active); inconclusive = small, poorly fitted or top-dose-only effect, or another doubt; inactive = no such curve, though single readings can be large or run the other way;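 note: top concentration of the series not given in the record; plate controls included wells without enzyme; inactives centre near -10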
Target sequence (P15428 whole entry, looked up): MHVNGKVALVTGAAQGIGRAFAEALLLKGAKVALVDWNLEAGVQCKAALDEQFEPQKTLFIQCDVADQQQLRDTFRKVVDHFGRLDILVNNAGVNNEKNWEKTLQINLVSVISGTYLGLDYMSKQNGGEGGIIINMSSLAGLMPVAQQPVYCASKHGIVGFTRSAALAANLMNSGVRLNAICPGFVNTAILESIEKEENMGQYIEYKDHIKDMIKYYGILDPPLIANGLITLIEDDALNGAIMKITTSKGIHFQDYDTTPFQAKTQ
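20 nM HPGD preincubated 15 min at room temperature with compound in 50 mM Tris-HCl pH 8, 0.01% Tween 20. Started with 1 mM NAD+ and 30 uM prostaglandin E2; NADH fluorescence (360/450 nm) read 5 times over 30-s intervals, last minus first.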
The depositor's hits bear a star; ? = inconclusive; & = joins results of further samples. % is set by controls: 0 for no effect and ±100 for the full control effect; potency is the fitted concentration of half-maximal effect.

| SMILES | HPGD block |
| --- | --- |
| Cc1ccc(C)c(NC(=O)CCC(=O)NNC(=O)c2cccc([N+](=O)[O-])c2)c1 | 8% |
| Cc1cc2[nH]c3ccccc3c2c(C)n1 | -29% |
| O=c1c(-c2nnc(SCc3ccc(Cl)cc3Cl)o2)cccn1Cc1ccccc1 | ? |
| O=C(Cn1nnc(-c2ccc(S(=O)(=O)N3CCCC3)cc2)n1)NCC1CCCO1 (stereo unspecified) | -4% |
| CCC1(NC(C)=O)CC2CC1CC2NC(C)=O (stereo unspecified) | -8% |
| COc1ccccc1CCNC(=O)CSc1nc(-c2ccco2)cc(C(F)(F)F)n1 | ? |
| c1ccc2nc(-c3nc4ccccc4o3)ccc2c1 | ? |
| CC(C)c1ccc(C2CC(=O)c3cnc(N4CCc5ccccc5C4)nc3C2)cc1 (stereo unspecified) | -20% |
| CC1(OC(=O)CCc2ccccc2)C(=O)C=C2C=C3CCCN3C=C2C1=O (stereo unspecified) | -10% |
| CN(C)c1nc(N)nc(CSc2ncc(Cl)cc2Cl)n1 | 8.9µM* |
| CCN(CC)c1ccc(/C=N/NC(=O)c2cccc(S(=O)(=O)Nc3ccccc3OC)c2)c(O)c1 | -17% |
| COCCNC(=O)C(c1cccs1)N(C(=O)Cn1nnc2ccccc21)c1ccccc1 (stereo unspecified) | -7% |
| Cc1nnc(N(C)C(=O)Cc2ccc3c(c2)OCO3)s1 | -17% |
| Cn1c(=O)c2c(nc(CN3CCN(C(=O)c4ccco4)CC3)n2Cc2ccc(Cl)cc2)n(C)c1=O | -6% |
| COc1ccc(OC(C)C(=O)Nc2cccc([N+](=O)[O-])c2)cc1 (stereo unspecified) | -6% |
| c1ccc2nc(CC[C@@H]3CCCCN3)ccc2c1 | -10% |
| COC(=O)C1(C)NC(=O)c2ccccc2N1 (stereo unspecified) | ? |
| CCN1CCN(c2ccc(S(=O)(=O)N3CCCCC3)cc2NC(=O)c2ccc(F)cc2)CC1 | 2% |
| COc1cc(OC)cc(-c2nnc(SCC(=O)NCc3cccs3)o2)c1 | -4% |
| CN(C(=O)COc1cc(=O)n(C)c2ccccc12)c1cccc(Cl)c1 | -6% |
| Cn1c(=O)[nH]c(=O)c2c1nc(N1CCOCC1)n2CCN1CCOCC1 | 4% |
| CCCCC1CCC(C(=O)OCC(=O)Nc2ccc(S(N)(=O)=O)cc2)CC1 (stereo unspecified) | -9% |
| NC[C@@H]1O[C@@H](O[C@H]2[C@H](O)[C@@H](O[C@@H]3O[C@@H](CO)[C@H](O)[C@@H](N)[C@@H]3O)[C@H](N)C[C@@H]2N)[C@@H](O)[C@H](O)[C@H]1O | -17% |
| COC(=O)C1=C(C(C)=O)C(c2ccc(C)cc2)n2nnnc2N1 (stereo unspecified) | ? |
| Cc1nn(Cc2ccc(Br)cc2)c(C)c1NC(=O)c1nn(C)cc1Cl | -7% |
| O=C(COC(=O)c1ccc[nH]c1=O)NC1CCCC1 | -4% |
| c1ccc(-n2nnc3c(N4CCOCC4)ncnc32)cc1 | 28µM* |
| CCc1ccc(OCC(=O)NC(=S)Nc2ccc(F)cc2)c(Br)c1 | -12% |
| COC(=O)C[C@H]1c2ccccc2C2=C(C[C@@H](C)[C@H]3C(=O)NC(=O)[C@@H]23)N1C(=O)OC | -13% |
| O=C(Cn1cc(C(F)(F)F)ccc1=O)N/N=C/c1ccc(Cl)cc1Cl | -14% |
| O=C(OOC(=O)c1ccccc1)c1ccccc1 | -8% |
| O=S(=O)(N/N=C\C=C\c1ccccc1)c1ccc(Cl)cc1 | -24% |
| CCCn1nnc(NC(=S)NC(=O)CC)n1 | -1% |
| Cn1c(C(=O)N2CCCc3ccccc32)cc2c(=O)n3ccccc3nc21 | ? |
| O=C(NCC1COc2ccccc2O1)C1CCCN(S(=O)(=O)c2cccc3cccnc23)C1 (stereo unspecified) | ? |
| CCN1C(=O)N[C@@H](c2cccc(C(F)(F)F)c2)C(C(=O)OC)=C1C | -3% |
| CCCOc1ccc(C(=O)CCNc2ccc(C)c(Cl)c2)cc1 | -5% |
| Cc1ccccc1CSc1nc2c(c(=O)[nH]1)CCCC2 | 4µM* |
| COn1c(SCc2ccc(C)cc2C)nc2ccccc2c1=O | -29% |
| Cc1cnc2cc(Cl)ccc2c1SCC(=O)O | -1% |
| CC(=O)Nc1ccc(S(=O)(=O)NC2(C(F)(F)F)C(=O)Nc3c2c(=O)n(C)c(=O)n3C)cc1 (stereo unspecified) | 20µM* |
| Cc1cc(C)c(C#N)c(OCC(=O)c2ccc(Br)cc2)n1 | -18% |
| CCC(C)c1ccc(NC(=O)CC(C)=O)cc1 (stereo unspecified) | -5% |
| COC(=O)Nc1sc2c(c1C(N)=O)CCCCCC2 | 14µM* |
| COc1ccccc1NC(=O)Cn1nc(C(F)(F)F)c2c1CCCC2 | -13% |
| OCCn1c(C(F)(F)F)nc2ccccc21 | -6% |
| Cc1ccc(S(=O)(=O)Cc2ccc(C(=O)OCc3ccccc3)cc2)cc1 | -21% |
| Cc1ccc(C(=O)NCCc2cccc(Cl)c2)cc1[N+](=O)[O-] | -8% |
| O=C(CCSc1ccc(Cl)cc1)NC1CCCCC1 | 4.5µM* |
| Cc1nc(-c2cccc(NS(C)(=O)=O)c2)cs1 | -24% |

Additional results:
| SMILES | HPGD block |
| --- | --- |
| CC(=O)N1CCN(c2ccc([N+](=O)[O-])c(-n3nc(C)cc3C)c2)CC1 | -3% |
| O=C(O)CCC/C=C\C[C@@H]1[C@@H](/C=C/[C@@H](O)COc2cccc(Cl)c2)[C@H](O)C[C@@H]1O | -9%&-6%&-15% |
| CCN1CCN(C(=O)c2ccccc2N(Cc2ccccc2)S(C)(=O)=O)CC1 | -6% |
| COc1ccccc1NC(=O)c1ccccc1NS(C)(=O)=O | -4% |
| O=C1c2ccccc2C(Nc2ccc(Cl)cn2)N1c1cccnc1 (stereo unspecified) | -7% |
| COc1ccc(Cc2ccccc2C(=O)O)c2ccccc12 | -3% |
| COCCNc1nc2sc3c(c2c(=O)n1Cc1ccco1)CCCCC3 | -4% |
| CCCc1cc(=O)oc2cc3occ(C)c3cc12 | ? |
| CCCC(C)NC(=O)c1ccc(F)cc1 (stereo unspecified) | ? |
| CCOc1ccc(NC(=O)C2CC(=O)N=C(N)S2)cc1 (stereo unspecified) | -12% |
| Cc1cc(C)c(C#N)c(SCC(=O)NN2CC(=O)N(c3ccccc3F)CC2=O)n1 | -14% |
| COc1ccccc1-n1cc(-c2ccc(Cl)cc2)[nH]c1=O | -6% |
| S=c1[nH]nc(-c2ccccc2)o1 | ? |
| CCOC(=O)C1=C(C)OC(N)=C(C#N)C1c1ccsc1 (stereo unspecified) | -19% |
| O=C(Nc1cccc2cccnc12)[C@@H]1[C@@H](C(=O)O)[C@H]2CC[C@@H]1O2 | 0% |
| Cc1cccc(-c2nnc(NC(=O)c3ccc(N4C(=O)CCC4=O)cc3)s2)c1 | -27% |
| CCC(C)(C(=O)NC1CCCCC1)N(C(=O)c1ccccn1)c1ccccc1 (stereo unspecified) | -12% |
| Cc1ccc(-n2c(SCC(=O)OC(C)C)nnc2-c2ccncc2)cc1 | -21% |
| CC(=O)c1ccc(NC(=S)N2CCCC(CO)C2)cc1 (stereo unspecified) | -5% |
| N#Cc1cc2[nH]c(=O)c(=O)[nH]c2cc1[N+](=O)[O-] | -28% |

Fetched one by one from above:
| SMILES | HPGD block |
| --- | --- |
| COc1ccccc1-n1cc(-c2ccc(Cl)cc2)[nH]c1=O | -6% |
| CC(=O)c1ccc(NC(=S)N2CCCC(CO)C2)cc1 (stereo unspecified) | -5% |
| CCC(C)(C(=O)NC1CCCCC1)N(C(=O)c1ccccn1)c1ccccc1 (stereo unspecified) | -12% |
| Cc1cccc(-c2nnc(NC(=O)c3ccc(N4C(=O)CCC4=O)cc3)s2)c1 | -27% |
| CCOC(=O)C1=C(C)OC(N)=C(C#N)C1c1ccsc1 (stereo unspecified) | -19% |
| O=C(Nc1cccc2cccnc12)[C@@H]1[C@@H](C(=O)O)[C@H]2CC[C@@H]1O2 | 0% |
| Cc1ccc(-n2c(SCC(=O)OC(C)C)nnc2-c2ccncc2)cc1 | -21% |

(further entries)
| SMILES | HPGD block |
| --- | --- |
| CCOc1ccc(NC(=O)c2nccnc2CO)cc1 | -17% |
| CC(=O)Nc1ccc(S(=O)(=O)Nc2nnc(C(C)C)s2)cc1 | -23% |
| O=C(O)CCc1nc2ccccc2n(CCc2ccccc2)c1=O | ? |
| Cc1cccc(-c2nc3c(c(SCC(=O)N(C)C)n2)CCCC3)c1 | -25% |
| Cc1ccc(C2(C)NC(=O)N(CC(=O)Nc3ccc4c(c3)OCO4)C2=O)cc1 (stereo unspecified) | -3% |
| CC1=C(C(=O)Nc2ccccc2)C(c2ccco2)NC(=S)N1 (stereo unspecified) | -9% |
| CCOc1ccc2oc(-c3ccccc3)c(C(=O)N(C)C)c2c1 | ? |
| CSc1nc(Oc2ccc(C)cc2)cc(C(F)(F)F)n1 | -2% |
| N#Cc1c(N)nc2c(c1-c1ccccc1)CCCC2 | -26% |
| COc1ccccc1NC(=O)N1CCCC1C(=O)NCc1ccccc1F (stereo unspecified) | -1% |
| O=C(Cc1ccc(-n2c(=S)[nH]c3ccccc3c2=O)cc1)N1CCN(c2ccccc2)CC1 | -9% |
| Nc1ccc2oc(-c3cccc(Br)c3)nc2c1 | -11% |
| CCc1cc2cc(C(=O)Nc3ccc(C)cc3)sc2s1 | -12% |
| CCN(CC)C(=O)CSCC(=O)Nc1ccccc1 | -8% |
| Cc1nn(C)cc1CN(C)C(=O)c1nn2c(c1Cl)NC(c1cccs1)CC2C(F)(F)F (stereo unspecified) | -14% |
| Cc1cc(=O)[nH]c2cc3oc4ccccc4c3cc12 | -21% |
| COc1cccc(/C=C/C(=O)c2ccc(NS(=O)(=O)c3ccc(C)cc3)cc2)c1 | -16% |
| CC(=O)NC(=S)Nc1cc(C(F)(F)F)ccc1N1CCOCC1 | -7% |
| O=C(c1ccc2c(c1)OCO2)N1CCN(c2ccccc2F)CC1 | -1% |
| COC(=O)c1cccc(NC(=O)Cn2cnc3ccccc3c2=O)c1 | -7% |
| CC(C)c1ccc(N(C(=O)C(F)(F)F)C(C(=O)NC2CCCCC2)c2ccncc2)cc1 (stereo unspecified) | -7% |
| Cc1sc(NC(=O)/C=C/c2ccc3c(c2)OCO3)nc1-c1ccccc1 | ? |
| CCOC(=O)c1c(NC(=O)CCC(=O)O)sc2c1CCCCC2 | 8.9µM* |
| CCOC(=O)c1ccc(NC(=O)CCc2nc(-c3ccc(C)cc3)no2)cc1 | -19% |
| C[C@H]1CC(C)(C)C[C@@](OCCN2CCCCC2)(c2ccccc2)C1 | -4% |
| Nc1nc2ccc([N+](=O)[O-])c(N)c2s1 | -25% |
| CCOc1cc(C(=S)N2CCN(C)CC2)ccc1OCC(=O)N1CCOCC1 | -5% |
| CC(C)(C)c1ccc(OCC(=O)N(c2ccccn2)C2CCCCC2)cc1 | -7% |
| COC(=O)c1cc(NC(=O)c2ccoc2C)cc(C(=O)OC)c1 | -19% |
| Nc1nonc1C(=Nc1ccccc1)NO | -18% |
| CCn1c(SCC(=O)c2ccc3c(c2)Cc2ccccc2-3)nnc1-c1ccc(N)cc1 | -7% |
| Cc1ccc(C2C(C#N)=C(N)Oc3n[nH]c(C)c32)cc1 (stereo unspecified) | -4% |
| O=C(c1ccccc1Cl)N(C(=O)c1ccccc1Cl)c1nccc(-c2cccs2)n1 | ? |
| O=C(CSc1nnc(-c2cccnc2)n1-c1ccc(SC(F)F)cc1)N1CCCc2ccccc21 | -2% |
| CC(C(=O)Nc1ccc(S(=O)(=O)N2CCOCC2)cc1)N(c1ccccc1)S(C)(=O)=O (stereo unspecified) | -5% |
| COc1ccc(C(=O)OC2CCN(C)CC2)cc1 | -9% |
| CCOc1ccc(C(=O)N/N=C/c2ccc(SC)cc2)cc1 | -7% |
| COCCn1nnnc1C(C(C)C)N1CCOCC1 (stereo unspecified) | -14% |
| CSCC[C@H](NC(=O)OCc1ccccc1)C(=O)O | -5% |
| Nn1cnnc1SCC(=O)Nc1ccc(C2CCCCC2)cc1 | -23% |
| Cc1ccc(S(=O)(=O)N[C@H](C(=O)OCC(=O)NC(=O)Nc2ccc3c(c2)OCCO3)C(C)C)cc1 | -9% |
| COc1cc2c(cc1OC)C(c1ccc3c(c1)OCO3)CC(=O)N2 (stereo unspecified) | -7% |
| CCOc1cc(C2C(C#N)=C(N)Oc3n[nH]c(-c4ccccc4)c32)ccc1O (stereo unspecified) | -21% |
| Cc1cc2c(C)ccc(C)c2nc1SCC(=O)c1cccs1 | -3% |
| Cc1ccc(COc2ccsc2-c2n[nH]c(=S)n2C)cc1 | ? |
| CC(=O)c1sc(NC(=O)COc2ccc(C)c(C)c2)nc1C | -10% |
| COc1cc2c(cc1OC)C1C(=O)c3ccc4c(c3OC1CO2)C=CC(C)(C)O4 (stereo unspecified) | -13% |
| C/C=C/c1ccc(OCCCNC(C)CC)c(OC)c1 (stereo unspecified) | -9% |
| Cc1ccc(Cc2nc(-c3ccccn3)no2)cc1 | -4% |
| C/C(=N/NC(=O)c1cnccn1)c1cccs1 | -7% |

Carrying on.
| SMILES | HPGD block |
| --- | --- |
| CCOC(=O)Cc1csc(NC(=O)COc2ccc3ccccc3c2)n1 | -4% |
| Cc1ccccc1C(=O)N1CCCN(C(=O)c2ccccc2C)CC1 | -3% |
| COc1ccc(NC(=O)CCCn2c(=O)c3sccc3n(Cc3ccccc3C)c2=O)cc1 | -15% |
| O=C(CN1CCN(Cc2ccccc2Cl)CC1)N/N=C/C=C/c1ccccc1[N+](=O)[O-] | -10% |
| C#CCN(C)Cc1ccccc1 | -2%&3%&-2% |
| COC(=O)c1ccccc1Sc1c(/C=N/OC(=O)c2ccccc2)c(C(F)(F)F)nn1C | -15% |
| O=C(O)Cc1ccc2[nH]c3ccc(CC(=O)O)cc3c2c1 | ? |
| N=C(N)SCCSC(=N)N | -12% |
| O=CN1CCN(C2CC(=O)N(c3ccc(Br)cc3)C2=O)CC1 (stereo unspecified) | -9% |

An excerpt, so the mix of outcomes need not match the whole.
